# PINK1 expr mod: A Quantitative High throughput Screen to Identify Chemical Modulators of PINK1 Expression; PINK1 immunofluorescence, high-content cytometry, 24 h; Potency, µM (series often up to 76.6 µM), inactives show top-dose activation (PINK1 increase), actives largely listed as activators; 0.2% of 410,000 active; active = well fitted activation curve with a large enough effect; inconclusive = small, poorly fitted or top-dose-only effect; inactive = flat fitted curve, though single readings scatter; cell line not stated here;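 note: potency is the fitted concentration of half-maximal effect; % of control where 0% means no effect; nearly all actives have a fitted effect of over 65% in size; a mitochondrial uncoupler was the plate control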
#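 Readout is PINK1 immunofluorescence, quantified alongside mitochondrial, cell and nuclear markers by laser-scanning microplate cytometry. Cells from a stable line were exposed to compound titrations (5 concentrations) for 24 hours, with CCCP controls.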
# CtBP-E1A blk: qHTS Assay for Inhibitors of the CtBP/E1A Interaction. activity change, % (no concentration beside the values). AID 651724, 2012. AlphaScreen GST-E1A/His-CtBP binding, 1536-well; hits give low values; control for the full effect not named in the record. 0.49% of 340,000 active. CtBP / adenovirus E1A interaction (AlphaScreen); in the data active means activity change below about -65%; inconclusive means about -30% to -65%; inactive means above about -30%; note: % is set by controls: 0 for no effect and ±100 for the full control effect; compound concentration not given in the record
#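 Steps: dispense buffer (Tris pH 8.0, NaCl 300 mM, TCEP 1 mM, BSA, Tween 20); add 5X protein mix (GST-E1A, His-CtBP, 125 nM each); pin 23 nL compound; 2 h at 37 °C, dark; add 5X beads (50 ug/mL); 1 h; read.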
# TRPML1 ag: qHTS for Agonists of the Human Mucolipin Transient Receptor Potential 1 (TRPML1); activation, % (concentration not given with the values); Mucolipin-1 (Homo sapiens), Q9GZU1; 0.12% of 410,000 active; AID 624414, 2012; TRPML1-expressing cells, Ca2+ dye fluorescence, FDSS; host cell line not named in the record; reference of the full effect not given here; in the data active = activation above about 50%; inconclusive = about 30% to 50%; inactive = below about 30%; note: 0% is about no effect; the text of the record puts the active cut at 80%
#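 Kinetic FDSS Ca2+ read in Tet-induced TRPML1-DL cells (ABD Ca8 dye plus quencher, 45-90 min RT loading): baseline, then compound, then 110 s agonist window; EC80 agonist 54-4 at 4uM final added afterwards for a 110 s antagonist window.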
# D2 agonist: Beta-Arrestin HTS for Positive Allosteric Modulators of the Human D2 Dopamine Receptor: Agonists; DiscoveRx PathHunter D2 beta-arrestin, luminescence, 90 min; 100% = 57 uM dopamine signal; 0.084% of 360,000 active; activation, % (concentration not given with the values); in the data active = activation above about 40%; inconclusive = about 15% to 40%; inactive = below about 15%; note: compound concentration not given in the record; the text of the record calls up to 30% inactive
#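 Agonist mode: compounds alone added to overnight-plated D2 PathHunter cells for 90 min at 37 C, with 57 uM final dopamine (EC100) defining full response. Beta-arrestin recruitment detected by chemiluminescent reagent, read after 1 h at ambient temperature.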
# D2 PAM: Beta-Arrestin HTS for Positive Allosteric Modulators of the Human D2 Dopamine Receptor: Potentiators | potentiation, % (concentration not given with the values) | DiscoveRx D2 beta-arrestin cells, luminescence, 90 min; 100% = 57 uM dopamine signal | 0.23% of 360,000 active; active = potentiation of 50% or more; inconclusive = 30% to 50%; inactive = 30% or less;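 note: compound concentration not given in the record; tested on top of an EC20 dose of dopamine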
#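 PathHunter D2 cells, attached overnight at 37 deg C, received compound in DMSO plus dopamine at EC20 (50 nM final) for 90 min at 37 deg C. Beta-arrestin recruitment was read as luminescence after 1 h with detection reagent at ambient temperature.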
# Six1-Eya2 inh: qHTS Assay for Inhibitors of the Six1/Eya2 Interaction; activity change, % (concentration not given with the values); Homeobox protein SIX1 (Homo sapiens) + Protein phosphatase EYA2 (Homo sapiens), …; AlphaScreen GST-Six1/His-Eya2 binding, biochemical; hits give low values; control for the full effect not named in the record; 0.56% of 360,000 active; in the data active = activity change below about -65%; inconclusive = about -30% to -65%; inactive = above about -30%; note: % is set by controls: 0 for no effect and ±100 for the full control effect
# Target sequence (O00167 whole entry, looked up): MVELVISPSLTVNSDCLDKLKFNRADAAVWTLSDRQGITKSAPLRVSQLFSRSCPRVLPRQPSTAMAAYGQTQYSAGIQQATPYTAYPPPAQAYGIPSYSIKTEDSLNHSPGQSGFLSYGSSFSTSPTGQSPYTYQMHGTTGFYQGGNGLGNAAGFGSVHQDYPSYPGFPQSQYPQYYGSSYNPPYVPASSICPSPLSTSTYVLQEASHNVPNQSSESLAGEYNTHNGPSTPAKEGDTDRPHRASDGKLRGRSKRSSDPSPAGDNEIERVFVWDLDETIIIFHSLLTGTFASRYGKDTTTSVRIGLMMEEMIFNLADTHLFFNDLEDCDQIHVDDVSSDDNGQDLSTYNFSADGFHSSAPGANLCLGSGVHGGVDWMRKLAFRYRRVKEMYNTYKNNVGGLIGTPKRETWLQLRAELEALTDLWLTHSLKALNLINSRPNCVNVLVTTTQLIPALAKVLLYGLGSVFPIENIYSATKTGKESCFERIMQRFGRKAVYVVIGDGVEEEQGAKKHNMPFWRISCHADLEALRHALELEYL
# Target sequence (Q15475 whole entry, looked up): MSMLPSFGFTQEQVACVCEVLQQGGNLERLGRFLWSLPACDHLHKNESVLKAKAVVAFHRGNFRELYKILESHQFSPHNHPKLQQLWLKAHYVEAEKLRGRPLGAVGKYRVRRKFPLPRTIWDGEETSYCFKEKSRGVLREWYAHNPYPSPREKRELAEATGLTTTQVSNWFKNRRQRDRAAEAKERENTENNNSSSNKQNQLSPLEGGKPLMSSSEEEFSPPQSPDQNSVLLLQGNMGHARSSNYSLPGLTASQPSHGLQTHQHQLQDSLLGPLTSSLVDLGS
#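 Homogeneous AlphaScreen proximity assay pairing GST-Six1 with His-tagged Eya2 (added as 5X mix: 250 nM and 500 nM) in 50 mM Tris pH 8.0, 300 mM NaCl, 1 mM TCEP. Glutathione donor and nickel acceptor beads; 1 h, 37 °C, dark.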
# * hit, by the source's call; ? = inconclusive; / = no result given; & = joins results of further samples; [ ] = dose if it differs, or a comment.
SMILES,PINK1 expr mod,CtBP-E1A blk,TRPML1 ag,D2 agonist,D2 PAM,Six1-Eya2 inh
Nc1ncnc2c1cnn2C1CC(O)C(CO)O1 (configuration not stated),-3.5%,0.0,0.2,-3.1,-7.3,14.6
COCCn1c(SCC(=O)Nc2ccccc2F)nc2c([nH]c3ccccc32)c1=O,13.9%,4.0,-0.5,-1.3,-5.8,1.4
O=C(CSc1n[nH]c(=O)[nH]c1=O)c1cccc([N+](=O)[O-])c1,0.4%,/,-0.1,-4.8,-1.8,-6.2
CSCCn1c(C(C)(C)C)cc(C(=O)O)c1C,-0.5%,1.3,-0.5,-2.6,-1.6,-20.1
CCOc1ncccc1C(=O)OCC(=O)N1CCc2ccccc21,0.6%,-0.8,-0.2,-1.5,-4.7,-1.1
C=CCn1c(SCC(=O)C(C)(C)C)nnc1-c1ccccn1,?,2.0,-0.2,-2.1,-0.8,-0.2
C=CCn1c(=O)c2c(nc3n2CC(C)CN3CCc2ccccc2)n(C)c1=O (configuration not stated),0.9%,/,1.5,2.4,-1.3,-5.0
CC(C)Oc1ccc(C(CCN)C2CCCCC2)cc1 (configuration not stated),-2.2%,-5.7,24.3,-1.8,-5.4,-0.2
CC(C)C(N)c1csc(NC(=O)Nc2cccc(Cl)c2)n1 (configuration not stated),-1.1%,-12.6,-0.2,3.3,-17.3,-7.8
COc1ccc(Cl)cc1NS(=O)(=O)c1c(C)nc2sccn2c1=O,5.3%,-6.6,-0.3,-2.7,-12.4,-7.6
CCOc1ccc2oc(C(=O)Nc3nccs3)c(C)c2c1,7.1%,0.1,-0.1,6.8,-4.6,8.4
COc1cccc(C(=O)C(CCC#N)c2ccccc2)c1 (configuration not stated),-0.3%,-1.5,-0.1,-4.2,-7.3,42.1
CCC[C@@H](CN1CCC[C@H]1CN1C(N)=NC[C@H]1CC(C)C)N1C[C@@H](Cc2ccccc2)N(CCCC2CCCC2)C1=N,0.4%,-11.0,0.4,-4.6,/,4.7
CCOc1cccc(C2/C(=C(/O)c3ccc4c(c3)CC(C)O4)C(=O)C(=O)N2CCCn2ccnc2)c1 (configuration not stated),1.5%,1.7,0.3,-1.0,-3.8,-0.9
COCc1cc(C)nc(NCCO)c1C#N,0.3%,1.8,0.2,-1.8,-3.9,4.7
CC(C)Cn1c(N)c(C(=O)COC(=O)c2cc(-c3ccco3)nc3ccccc23)c(=O)n(C)c1=O,?,-2.9,2.6,2.0,1.1,-9.1
Cc1ccc(-c2csc3ncnc(SCC(=O)NCc4ccc5c(c4)OCO5)c23)cc1,/,2.7,2.0,-0.9,0.5,-0.6
O=C1N(Cc2cccc(Cl)c2)C[C@@H]2C[C@@H](c3ccsc3)N3CCC[C@@]123,2.7%,-1.4,0.4,0.7,-5.1,-7.8
CN1CCN(CC(=O)Nc2c(C#N)cnn2-c2ccccc2)CC1,-1.0%,-0.2,0.2,3.6,-0.7,-2.0
COc1ccc(C(=O)CC(=O)C(=O)Nc2c(C)cccc2C)cc1,0.8%,/,1.3,-6.9,-15.2,-11.2
CCCOc1ccc(C(NC(=O)CC(C)C)NC(=O)CC(C)C)cc1OC,-0.4%,14.3,0.0,0.1,18.4,6.2
O=C(C[n+]1cc(Br)cc(Br)c1)c1ccccc1,1.5%&-0.7%,1.7,-0.3&-0.2,0.1,-2.2,-1.9
COc1ccc(OCCC(=O)OCC(=O)c2ccc[nH]2)cc1,1.0%,-3.4,-0.4,-6.6,-3.6,2.4
O=C(Nc1ccnn1C1CCN(Cc2cc(Cl)ccc2O)CC1)C1CC1,-0.6%,0.7,0.1,-2.8,-25.8,-0.1
Cc1ccc2nc(Cl)c(/C=C/C(=O)c3ccco3)cc2c1,0.7%,-8.2,0.9,6.8,-7.7,-1.0
CCOc1ccc(CN2C(=O)c3ccccc3C2C(=O)NCC2CCCO2)cc1 (configuration not stated),-0.5%,9.0,0.3,-0.7,-3.9,11.8
Cn1cc(CN2CCCC(CNC(=O)c3ccc4c(c3)OCO4)C2)c2ccccc21 (configuration not stated),2.3%,3.2,0.4,-2.9,-10.7,-1.2
CN(C)C(=O)NC1CCCCCCCCCCC1,2.2%,6.9,0.6,1.7,-6.6,9.2
CC(=O)c1cccc(NC(=O)c2oc(C)nc2C)c1,-6.8%[38.3 µM],-0.9,0.4,-1.5,-1.6,3.7
CCOC(=O)/C(C#N)=C1/C=CN(C)C(C)=N1,-3.7%[38.3 µM],14.2,0.0,-3.6,-11.6,-3.5
Cc1ccc(OCC(=O)Sc2ccc(C)cc2)cc1,16.8%,6.0,0.0,-0.3,5.7,9.2
COC(=O)Cn1cc(C(=O)C(F)(F)F)c2ccccc21,1.1%,-16.1,-0.2,-1.5,-2.4,1.3
CCOc1ccc2[nH]c(=O)c(CN(CCCN3CCOCC3)Cc3nnnn3Cc3ccc(OC)cc3)cc2c1,1.3%,-0.9,0.0,-1.4,-15.0,1.6
COc1ccccc1OCC(=O)Nc1ccc(S(=O)(=O)Nc2cc(C)nc(C)n2)cc1,0.8%,-2.6,-0.2,-1.5,-4.6,4.0
COC(=O)[C@]1(C)CCC[C@@]2(C)C3CC[C@]4(OC(C)=O)C[C@@]3(CCC21)CC4=NO (some centres not stated),3.5%,-28.6,1.8,?,25.8,-6.2
CCN(CC)C(=O)c1cccc(-c2csc(C(O)c3ccc(F)c(F)c3)n2)c1 (configuration not stated),1.2%,1.2,-0.4,2.4,5.9,-0.3
CS(=O)(=O)c1ccc(C(=O)N(Cc2ccccc2)c2ccccc2)cc1,0.3%,-9.5,0.8,2.0,-1.2,-1.0
Cc1cccc(N2CCN(C(=O)c3[nH]c(C(F)(F)F)nc3-c3ccccc3)CC2)c1C,3.5%,6.9,2.3,9.6,-5.9,-2.0
O=C(COC(=O)c1cnc(Cl)c(Cl)c1)c1ccc(F)cc1,9.1%,/,-1.7,-1.4,7.0,-1.7
CC(=O)Nc1ccc(NC(=O)C2CCCN2C(=O)Nc2ccc(F)c([N+](=O)[O-])c2)cc1 (configuration not stated),-0.8%,-0.8,0.7,-3.4,-8.9,-8.5
CNS(=O)(=O)c1cn(CC(=O)N(C)Cc2ccccc2)cc1S(=O)(=O)NC,0.3%,/,0.1,-7.1,-4.0,22.0
CCN(C[C@H]1N[C@@](CC)(C(=O)OC)[C@H]2C(=O)N(Cc3ccccc3)C(=O)[C@@H]12)C(C)=O,-0.3%,2.1,0.9,-2.3,-6.5,5.7
CN1CCC(=NNc2ccc(S(=O)(=O)N3CCOCC3)cc2[N+](=O)[O-])CC1,-2.3%,1.1,-0.3,1.3,29.4,-2.4
CCN(CC)C(=O)Cn1cc(C(=O)C(=O)N2CC=C(c3ccccc3)CC2)c2ccccc21,1.5%,?,-1.1,0.0,-11.6,-1.8
Cc1ccccc1Cn1nc(C)c(NC(=O)c2ccccc2)c1C,1.3%,3.3,-1.2,0.6,-18.6,-7.4

# Individual results from the results shown:
# Under TRPML1 ag, CCN(C[C@H]1N[C@@](CC)(C(=O)OC)[C@H]2C(=O)N(Cc3ccccc3)C(=O)[C@@H]12)C(C)=O reads 0.9
# Under TRPML1 ag, Cc1ccc(OCC(=O)Sc2ccc(C)cc2)cc1 reads 0.0
# Under PINK1 expr mod, COC(=O)[C@]1(C)CCC[C@@]2(C)C3CC[C@]4(OC(C)=O)C[C@@]3(CCC21)CC4=NO (some centres not stated) reads 3.5%

# (list continues)
SMILES,PINK1 expr mod,CtBP-E1A blk,TRPML1 ag,D2 agonist,D2 PAM,Six1-Eya2 inh
COc1ccccc1C(=O)NNC(=O)C(=O)NC(C)(C)C,-0.4%,5.3,1.0,-2.3,-4.9,0.7
S=C(NCc1ccccc1)NC1CCCc2ccccc21 (configuration not stated),27.2%,/,-0.1,5.8,-4.5,-2.2
CCOC(=O)c1cnc(-n2nc(C)cc2C)nc1-n1nc(C)cc1C,4.3%[38.3 µM],3.0,0.7,-1.6,-6.7,1.3
Cc1cc2c(ncn2Cc2ccccc2)c(N)c1C,1.4%,0.9,1.4,0.0,-2.5,-0.8
CC(=O)N/C(=C/c1ccc(OC(F)F)cc1)C(=O)O,-1.8%,-0.7,-0.5,-0.1,-1.1,4.4
Cn1c(N)c(C(=O)CSc2ccccn2)c(=O)n(C)c1=O,?,9.1,-0.3,-3.8,-15.1,-7.7
Cc1cc(CN(C)C(=O)c2ccc(OC3CCN(Cc4ccccn4)CC3)cc2)on1,-0.8%,1.6,-0.8,-0.1,-2.4,-3.4
COCC(C)NCc1ccc(C)cc1C (configuration not stated),-1.2%[38.3 µM],1.6,1.1,-0.1,2.2,4.0
CCC(=O)N1CCN(C(=O)CC)C1c1ccccc1,-0.9%,0.0,2.2,13.4,-16.3,36.4
COC(=O)c1sc(C(C)(C)C)cc1CS(=O)(=O)c1ccccn1,0.8%,/,-1.2,-6.5,-14.6,-2.7
Cc1ccccc1NS(=O)(=O)c1ccc(OCC(=O)NCc2ccccn2)cc1,0.6%,6.7,0.7,12.1,-2.6,6.4
COc1ccccc1CNC(=O)c1cn(C)c2ccc(S(=O)(=O)N3CCCC3)cc2c1=O,11.9%,-14.3,3.1,-1.1,3.4,-4.9
CCOC(=O)c1ccc(NC(=O)Nc2nncs2)cc1,?,0.9,0.1,0.8,-5.8,0.3
Nn1c(SCC(=O)N2CCOCC2)nnc1-c1ccco1,0.2%,-0.6,3.3,-4.1,4.4,-2.3
COC/C=C/C1=CC2=CC(=O)C(C)(OC(=O)c3cnc4ccccc4n3)C(=O)C2=CN1CCOC (configuration not stated),-0.1%,-3.8,-0.4,-0.5,-0.8,-3.7
Cc1ccc(S(=O)(=O)Nc2ccc3ncccc3c2)cc1,0.7%,-0.4,1.3,2.1,5.8,3.9
O=C(/C=C/c1ccccc1)C1=C(O)C(=O)N(CCO)C1c1cccc([N+](=O)[O-])c1 (configuration not stated),-1.0%,1.4,-0.4,-2.6,-14.1,1.1
CC(=O)Nc1ccc(NC(=O)CSc2nc3ccccc3nc2N2CCC(C)CC2)cc1,6.7%&8.0%,1.6,-0.2&0.7,-6.6,-6.5,-3.4
C=CCn1cc(/C=N/N2C(=O)C3C4C=CC(C4)C3C2=O)c2ccccc21 (configuration not stated),1.8%,/,0.6,2.2,-8.4,3.3
CN1CCN(C(=O)c2ccccc2Nc2ccc(SC(F)F)cc2)CC1,-0.3%,/,0.4,-6.2,-9.9,-0.7
Cc1c(C(=O)OCC(=O)NCC2CCCO2)oc2ccccc12 (configuration not stated),-0.4%,6.5,-0.5,0.3,-14.8,10.1
COc1ccc(NC(=O)N(C)[C@H]2C[C@H]3c4[nH]c5ccc(-c6ccc7c(c6)OCO7)cc5c4CCN3C[C@H]2[C@H](C)O)cc1,9.9%,-18.7,-0.3,-2.6,-8.4,?
